SmPrx2 inh: Schistosoma mansoni Prx2 inhibition; S. mansoni Prx2 activity coupled to TGR/GSH (TGR is thioredoxin glutathione reductase), NADPH fluorescence loss, qHTS; some inactives read as strong as hits; 65,000 compounds, 0.07% hits; Potency, µM; active means full or partial inhibition curve with a strong effect at the top dose; inconclusive means weaker partial or single-point curve; inactive means no accepted curve; also: series up to 57 µM; many of its hits are not listed in these tables
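Coupled assay in which S. mansoni TGR passes NADPH reducing equivalents via glutathione to Prx2, which reduces H2O2. Compounds were preincubated 15 min at room temperature with 25 nM TGR/50 nM Prx2 mix. Kinetic NADPH fluorescence loss (ex 365/em 450 nm) was monitored.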
Anthrax LT inh: blocks cellular internalization of anthrax lethal toxin | Cells, anthrax lethal toxin internalization, FRET ratio (460/530) | Potency, µM (top dose mostly 40 µM), without a hit: top-dose activity change, negative = inhibition, usual class: inhibitors | 70,000 compounds, 0.67% hits | AID 912; active = well fitted falling ratio curve with the 530 nm signal flat; inconclusive = other ratio curves, or a change in one channel alone; inactive = flat curves in the ratio and both channels; the % refers to the ratio; also: % is scaled to controls: 0 for no effect and ±100 for the full control effect; nearly all actives have a fitted effect of over 50% in size; tested in ME-180 cells; beta-lactamase reporter
Active calls of the source: *; u = inconclusive; x = not tested or not shown; & = joins results of further samples; [ ] = remark or other dose. Potency is read from the fitted curve at half-maximal effect. These rows are one share of the data, so the mix of outcomes need not match the whole.

Start of the data: the first 2 records, ahead of the listing:
SMILES	SmPrx2 inh	Anthrax LT inh
C=CCn1c(=N)n(CC(O)COc2ccc(OC)cc2)c2ccccc21 (centres undefined)	>57	-5%
Cc1noc(C)c1-c1nccc(N(C)C)n1	>57	-11%

This part in full, repeating the preview:
SMILES	SmPrx2 inh	Anthrax LT inh
C=CCn1c(=N)n(CC(O)COc2ccc(OC)cc2)c2ccccc21 (centres undefined)	>57	-5%
Cc1noc(C)c1-c1nccc(N(C)C)n1	>57	-11%
COC(=O)c1ccc(C(=O)OC)c(NC(=O)c2ocnc2C)c1	>57	u
CC(C)COC(=O)OCN1C(=O)CN(CCN2CC(=O)N(COC(=O)OCC(C)C)C(=O)C2)CC1=O	>57	2%
CCc1cccc2c(C#N)cn(CCOc3ccccc3OC)c12	>57	u
O=C(Nc1ccc2c(c1)OCCO2)C1CCC1	>57	-6%
O=C(CSc1nnc(-c2ccco2)o1)NC1CC2CCC1C2 (centres undefined)	>57	3%
Cc1cnc(C(=O)Nc2ccccc2-c2ccc(C)o2)cn1	>57	2%
CCCc1cc(C(=O)NCc2cccs2)no1	>57	8%
Clc1ccc(N2CCN(c3ncnc4c3oc3ccccc34)CC2)cc1	x	-5%
N#Cc1nc(-c2ccco2)oc1N1CCN(c2cccc(Cl)c2)CC1	>57	-21%
COc1ccccc1NC1=NC2(CCCC2)N=C(N)N1	>57	-15%
CC/C(=C\C(=O)c1cccnc1)Nc1ccc(C)c(C)c1	>57	u
COc1ccccc1-c1cc(C(=O)NCCCn2ccnc2)no1	>57	-5%
COc1cccc(N(C(=O)c2cccs2)c2nc3ccccc3s2)c1	>57	-3%
Cc1cc(=O)[nH]c(N2CCN(C(c3ccccc3)c3ccccc3)CC2)n1	>57	-20%
Nc1nc(N2CCCCC2)nc(N(c2ccccc2)c2ccccc2)n1	>57	-1%
C=CCn1c(SCc2nc(N)nc(N(C)C)n2)nnc1-c1cccnc1	>57	-4%
CCCOc1ccc2ccccc2c1/C=N/n1c(C)nnc1-n1nc(C)cc1C	>57	u
Cc1onc(-c2ccccc2Cl)c1C(=O)NCC1CCCO1 (centres undefined)	x	-5%

3 entries out of the list, arranged by count of non-hydrogen atoms, low to high.
SMILES	SmPrx2 inh	Anthrax LT inh
Cc1cnc(C(=O)Nc2ccccc2-c2ccc(C)o2)cn1	>57	2%
N#Cc1nc(-c2ccco2)oc1N1CCN(c2cccc(Cl)c2)CC1	>57	-21%
Clc1ccc(N2CCN(c3ncnc4c3oc3ccccc34)CC2)cc1	x	-5%

New compounds follow
SMILES	SmPrx2 inh	Anthrax LT inh
CCOc1cc(-c2cc(-c3ccc(N)cc3)nc(N)c2C#N)ccc1O	>57	u
Oc1c(CN2CCOCC2)cc(COCc2ccccc2)c2cccnc12	>57	-11%
CC(C)Oc1ccccc1C1CC(=O)Nc2cc3c(cc21)OCCO3 (centres undefined)	>57	u
Cc1cccc(OCCCC(=O)Nc2ccc3c(c2)OCO3)c1	>57	-5%
CC(=O)NC(CCS(C)(=O)=O)C(=O)Nc1cccc(C(C)=O)c1 (centres undefined)	>57	-2%
COc1cccc(CN2CCN(C(=O)c3cccc(F)c3)CC2)c1	x	-4%
CCn1c(COc2ccc(C)cc2)nnc1SCC(=O)Nc1ccc(S(N)(=O)=O)cc1	>57	-16%
CCCCn1c(SCC(=O)N2CCCC2)nc2c1c(=O)n(C)c(=O)n2C	>57	0%
COc1ccc(C)cc1NC(=O)c1cc2c(CO)cnc(C)c2oc1=N	>57	u
CCOC(=O)c1c(C)oc2c1c(C=NCc1ccccn1)c(O)c1ccccc12	>57	u
CCCC(=O)Nc1cc(C)c(NC(=O)Cc2ccccc2)cn1	>57	-17%
O=C(O)[C@@H]1CCCN1Cc1cc2ccccc2c2ccccc12	>57	-7%[8 µM]
Cc1nnc(NC(=O)Cc2ccc(OCc3c(C)noc3C)cc2)s1	>57	1%
CCOC(=O)C1=C(O)C(=O)N(Cc2ccccc2)C1	x	-16%
CCCOc1ccc(N)cc1N	>57	24%
CCOC(=O)CNC(=O)CSc1nc(NCc2ccccc2)nc(N(C)C)n1	>57	18%
O=C(CC1COc2ccccc2O1)Nc1ccccn1 (centres undefined)	>57	u
Cc1cc(C)n(-c2ccc(C(=O)Nc3ccc(S(=O)(=O)NCc4ccco4)cc3)cc2)n1	>57	u
O=c1n(Cc2cc3c(cc2Cl)OCO3)c(=O)n2n1CC[C@H]1/C(=N\OCc3ccccc3)[C@H]3O[C@@H]3[C@@H](O)[C@@H]12	x	-14%[8 µM]
CC(=O)NC(CC(C)C)C(=O)NC(Cc1ccccc1)C(N)=O (centres undefined)	>57	-4%

In a second layout: results already given.
CCCOc1ccc(N)cc1N
  SmPrx2 inh: >57; Anthrax LT inh: 24%
CC(=O)NC(CCS(C)(=O)=O)C(=O)Nc1cccc(C(C)=O)c1 (centres undefined)
  SmPrx2 inh: >57; Anthrax LT inh: -2%
CC(=O)NC(CC(C)C)C(=O)NC(Cc1ccccc1)C(N)=O (centres undefined)
  SmPrx2 inh: >57; Anthrax LT inh: -4%
CCCCn1c(SCC(=O)N2CCCC2)nc2c1c(=O)n(C)c(=O)n2C
  SmPrx2 inh: >57; Anthrax LT inh: 0%

(list continues)
SMILES	SmPrx2 inh	Anthrax LT inh
CC1Cn2c(COc3ccccc3)nnc2S1 (centres undefined)	>57	-4%
C[C@H](CCC(=O)O)[C@H]1CC[C@@H]2[C@H]3CC[C@H]4C[C@@H](O)CC[C@@]4(C)[C@H]3CC[C@]21C	>57	u
O=C(NCc1cn2ccccc2n1)c1ccccc1	>57	6%
COc1ccc2c(c1)[nH]c1c(C)nccc12	>57	u
C=CC[C@@H]1C=C[C@@H](O/N=C\c2ccc(C(=O)N3[C@H](c4ccc(C)cc4)[C@@H](C)CC[C@H]3C(=O)OC)cc2)[C@@H](CO)O1	x	u
Cn1c(=O)c(CCc2ccccc2)nc2cnc(N3CCNCC3)nc21	>57	0%
CC(=O)OCC(=O)[C@]12OC(C)(C)O[C@@H]1C[C@H]1[C@H]3CC=C4C[C@@H](O)CC[C@]4(C)[C@H]3CC[C@]12C	>57	-3%[8 µM]
CCCc1nc2ccccc2c(=O)n1NC(=O)c1c(O)c2ccccc2[nH]c1=O	>57	-5%
COc1ccc(-c2nc3cnc(OC)nc3n(Cc3cccs3)c2=O)cc1	>57	u
Cc1c(C(=O)Nc2ccccc2)oc2c1C(=O)CC(C)(C)C2	>57	7%
O=C(Nc1cccc(F)c1)N1CCC2(CC1)CCN(C(=O)c1cc(C(F)(F)F)cc(C(F)(F)F)c1)CC2	>57	u
C/C(=C(\C#N)C(=O)NCCN1CCOCC1)N(C)C	>57	-12%
Cc1ccc2cccc(Oc3nnnn3-c3ccccc3)c2n1	>57	5%
Clc1ccc(OCc2nnc(-c3ccccc3Br)o2)cc1	>57	-23%
Cc1ncc2c(c1O)COP(=O)(O)OC2	>57	-10%
O=C(O)CCc1ccc(-c2ccc(Br)cc2)n1Cc1ccco1	>57	-19%
O=P(OC1CCS(=O)(=O)C1)(c1ccccc1)c1ccccc1 (centres undefined)	>57	3%
O=C(Nc1ncc(Br)s1)C(Cc1ccccc1)n1cccc1 (centres undefined)	>57	u
Cc1cc(NC(=O)CSc2ccc3nnc(-c4cccnc4)n3n2)no1	>57	14%
CCOC(=O)N1CCN(C(=O)c2ccc(C#CC3(O)CCCCC3)cc2)CC1	>57	11%
COc1cc(NC(=O)c2cccs2)c(OC)cc1NC(=O)c1ccco1	>57	-1%
CCOC(=O)c1[nH]c(C(=O)O)c(CCC(=O)OC)c1C	>57	4%
COCCNC(=O)CN1CCC(n2c(C)nc3cc(C(F)(F)F)ccc32)CC1	>57	-2%
COc1ccc(C[C@@H]2NC[C@H](O)[C@H]2OC(C)=O)cc1	>11	u
C=CCc1c(C)nc(SCC(=C)C)[nH]c1=O	>57	10%
Oc1ccc(OCc2ccccc2)cc1	>57	7%[3.58 µM]
CC1CC(C)CN(CCCNC(=O)C2CCC(=O)N2C2CCCC2)C1 (centres undefined)	>57	10%
CSCCC(NC(=O)c1ccco1)C(=O)OC(C)C(=O)NC(=O)NC1CCCCC1 (centres undefined)	>57	8%
O=C(NCn1ccc(=O)[nH]c1=S)c1ccccc1	>57	8%
Cc1nc(-c2ccccc2)nc2[nH]c(=O)n(-c3ccccc3)c(=O)c12	>57	u
O=C(NC1CCCC1)C1CC(c2ccc(F)cc2)=NO1 (centres undefined)	>57	u
O=C1C(C=Nc2ccccc2O)=C(O)c2ccccc21	>57	25%
O=C(COCCOCC(=O)N(c1ccccn1)C1CCCCC1)N(c1ccccn1)C1CCCCC1	>57	5%
N=C(N)SCCc1ccccn1	>57&>57	11%&-5%[8 µM]
O=C1[C@@H]2[C@H]3[C@H](O)[C@H](O)C/C(=N/OCc4ccccc4)[C@@H]3CC[C@H]2C(=O)N1c1ccc(F)cc1F	x	u
Cc1ccccc1OCCCCCn1ccnc1	x	-2%
NCCSCc1ccccc1Cl	>57	-4%[8 µM]
COc1cc2[nH]c(=S)n(Cc3ccc(C)o3)c(=O)c2cc1OC	>57	x
COc1ccc(Cl)cc1N(CC(=O)Nc1ccccc1C(=O)NCc1ccco1)S(C)(=O)=O	>57	u
COC(=O)c1[nH]c2ccc(C)cc2c1NC(=O)CN1CCN(c2ccccc2)CC1	>57	u
Clc1ccc(Cc2nn3c(Cn4nnc5ccccc54)nnc3s2)cc1	x	-11%
COc1cccc(-c2nc(CS(=O)CC(=O)NCc3ccccc3Cl)c(C)o2)c1 (centres undefined)	>57	4%
O=C(c1ccc(Cn2c(=O)[nH]c3ccccc3c2=O)cc1)N1CCN(c2ccc(Cl)cc2)CC1	>57	-5%
CC(=O)Nc1ccc(OC(=O)c2cccnc2)cc1	>57	10%
CN1CCCC[C@@H]1CCN1CCCCC1	>57	-26%[8 µM]
Cc1cc(NC(=O)c2ccc(S(=O)(=O)N3CCOCC3)cc2)nc2c1c(=O)oc1ccccc12	>57	5%
O=C(Cn1ncc2ccccc21)N1CCc2ccccc21	>57	-1%
Cc1cccc(C(=O)NC2CC(C)(C)NC(C)(C)C2)c1	>57	-9%
CCOC(=O)CCn1nc(-c2ccc(Cl)cc2)cc1N	>57	14%
Oc1ccc2[nH]ccc2c1	>57	-8%
CCCCc1nnc(NC(=O)C=C(C)C)s1	>57	3%
c1ccc(C2CC2)c(OCC2=NCCN2)c1	>57&>57	-17%&-9%
O=C(c1cccc(F)c1)N1CCC2(CCCN(Cc3ccncc3)C2)CC1	>57	18%
Cc1ccc2cc3cc(C(=O)N4CCN(C(=O)c5ccco5)CC4)sc3nc2c1	>57	4%
CC(=O)Nc1ccc(N2CCN(Cc3ccccc3F)CC2)cc1	>57	-10%
O=C(O)[C@@H]1[C@@H]2C[C@@H]3[C@@H](OC(=O)[C@@H]31)[C@H]2Br	>57	-4%[8 µM]
O=C(NCC1COc2ccccc2O1)C1C2C=CC3(CN(Cc4ccccc4Cl)C(=O)C13)O2 (centres undefined)	>57	-5%
O=C(NCc1ccccc1)c1cc(-c2cccc(O)c2)on1	>57	-2%
CCOc1ccc(C2C=C(c3ccccc3)Nc3nnnn32)cc1 (centres undefined)	>57	u
NC1=N[C@H](c2ccc(Cl)cc2)N(c2ccc(S(N)(=O)=O)cc2)C(N)=N1	>57	u
Continuation:
SMILES	SmPrx2 inh	Anthrax LT inh
CC(=O)N(C)c1ccc(NC(=O)c2ccco2)cc1	>57	-3%
CS(=O)(=O)NCCC1=CCCCC1	>57	-26%
CCOc1ccccc1OCCCC(=O)NC1=NCCS1	>57	4%
CCOC(=O)C1CCCN(C(=O)CN2C(=O)c3ccccc3C2=O)C1 (centres undefined)	x	-20%
OCCCSCCO	>57	-3%[8 µM]
Cc1cc(C)n(-c2ccc(C(=O)Nc3ccccn3)cc2)n1	>57	0%
Cc1nn(C)c(C)c1S(=O)(=O)N1CCC(C(=O)NC2CCCCC2)CC1	>57	3%
O=C(Nc1sccc1C(=O)NCc1ccco1)c1cccnc1	>57	1%
CCOC(=O)N1CCC(NC(=O)c2cccn3c(=O)c4cc(Br)ccc4nc23)CC1	>57	u
O=C1OC(N2CCN(Cc3ccccc3)CC2)c2ccccc21 (centres undefined)	>57	u
O=C1c2ccccc2-c2c1nc1c([n+]2[O-])CCCC1	>57	u
CC(C)CCn1c(N2CCOCC2)nc2c1c(=O)n(CC(N)=O)c(=O)n2C	>57	-6%
CCCCOP(=O)(c1ccc(N(C)C)cc1)C(O)c1ccccc1F (centres undefined)	>57	x
O=C(CSc1nc2ccccc2[nH]1)Nc1cc(C(F)(F)F)ccc1N1CCOCC1	>57	u
Cc1cc(C)nc(SCc2nnc(SCc3ccccc3Cl)o2)n1	>57	-24%
COc1ccccc1CN1CCCC2(CCN(C(=O)Oc3ccccc3)CC2)C1	>57	-1%
CNC(=O)CN(C1CCCCC1)S(=O)(=O)c1ccc(F)cc1	>57	-5%
CCOC(=O)C1=C(C)N(C2CCCCC2)C(=O)C1	x	-11%
COc1ccc(-c2nc3ccccc3s2)cc1O	>57	-6%
C[C@H](NC[C@H](O)CP(=O)(O)CC1CCCCC1)c1ccc(Cl)c(Cl)c1	>57	-3%
O=C(Nc1ccc(-c2nc3ccccc3o2)cc1)c1ccc2c(c1)OCO2	>57	-22%
O=CN1CC(=O)N(c2ccccc2)c2c([nH]c3ccccc23)C1	>57	3%
CCOc1ccc(-c2noc(CCC(=O)NC)n2)cc1OCC	>57	-9%
